# Assay outcomes: PubChem BioAssay, National Center for Advancing Translational Sciences (NCATS)
# gsp antagonist: antagonizes gsp, the McCune-Albright syndrome mutation; 340,000 compounds, 0.4% hits; AID 624288; gsp-mutant cells, cAMP HTRF, 30 min; control for the full effect not named in the record; Potency, µM (series often up to 76.9 µM), for the others: at the top dose activity change, negative = inhibition, usual class: inhibitors; active = falling curve of any shape with a large fitted effect; inconclusive = falling curve, mostly with a smaller effect; inactive = flat or rising curve; cell line not stated here;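 also: intracellular cAMP measured with PDE inhibitor Ro 20-1724 present during compound exposure; potency is read from the fitted curve at half-maximal effect; % is scaled to controls: 0 for no effect and ±100 for the full control effect; nearly all actives have a fitted effect of over 65% in size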
#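 Cells in G418 medium, seeded 16-24 h, 37C; buffer exchange to DPBS + 1 mM CaCl2, 0.5 mM MgCl2, 0.05% BSA; cpds in DMSO + […] (300 uM stock), 30 min 37C; HTRF cAMP detection.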
# D2 PAM: positive allosteric modulators of human D2 dopamine receptor | 360,000 compounds, 0.23% hits | DiscoveRx D2 beta-arrestin cells, luminescence, 90 min; 100% = 57 uM dopamine signal | AID 624464 | potentiation, % (test concentration not listed) | P14416; active = potentiation of 50% or more; inconclusive = 30% to 50%; inactive = 30% or less;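 also: compound concentration not given in the record; tested on top of an EC20 dose of dopamine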
# Target sequence (P14416 whole entry, looked up): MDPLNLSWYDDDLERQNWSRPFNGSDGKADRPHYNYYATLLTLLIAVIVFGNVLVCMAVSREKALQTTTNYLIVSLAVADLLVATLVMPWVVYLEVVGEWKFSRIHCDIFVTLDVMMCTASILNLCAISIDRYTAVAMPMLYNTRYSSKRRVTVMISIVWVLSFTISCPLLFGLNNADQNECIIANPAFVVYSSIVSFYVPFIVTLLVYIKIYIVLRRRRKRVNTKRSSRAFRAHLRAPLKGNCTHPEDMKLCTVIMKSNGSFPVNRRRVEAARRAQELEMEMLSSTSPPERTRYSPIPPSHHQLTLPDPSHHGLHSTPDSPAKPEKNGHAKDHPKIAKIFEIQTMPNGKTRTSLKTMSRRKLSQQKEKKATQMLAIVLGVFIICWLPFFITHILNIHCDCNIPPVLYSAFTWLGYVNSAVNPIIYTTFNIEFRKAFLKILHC
#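 PathHunter D2 cells, attached overnight at 37 deg C, received compound in DMSO plus dopamine at EC20 (50 nM final) for 90 min at 37 deg C. Beta-arrestin recruitment was read as luminescence after 1 h with detection reagent at ambient temperature.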
# Six1-Eya2 inh: Six1/Eya2 interaction inhibition | Q15475+O00167 | AlphaScreen GST-Six1/His-Eya2 binding, biochemical; stronger effect = lower value; control for the full effect not named in the record | activity change, % (test concentration not listed) | 360,000 compounds, 0.56% hits; in the data active = activity change below about -65%; inconclusive = about -30% to -65%; inactive = above about -30%; also: % is scaled to controls: 0 for no effect and ±100 for the full control effect
#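 AlphaScreen with GST-Six1 and His-Eya2 (5X mix: 250 nM and 500 nM), glutathione donor and nickel acceptor beads; buffer 50 mM Tris pH 8.0, 300 mM NaCl, 1 mM TCEP; 1 h at 37 C in the dark.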
# gsp agonist: gsp mutant agonism; gsp mutant cells, cAMP HTRF, 30 min; control for the full effect not named in the record; Potency, µM (highest dose often 76.9 µM), inactives show at the highest dose activation (cAMP increase), usual class: activators; 340,000 compounds, 0.13% hits; active = well fitted activation curve with a large enough effect; inconclusive = small, poorly fitted or top-dose-only effect, or another doubt; inactive = no such curve, though single readings can be large or run the other way; cell line not stated here;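 also: phosphodiesterase inhibitor Ro 20-1724 added with compounds to block cAMP breakdown; potency is read from the fitted curve at half-maximal effect; nearly all actives have a fitted effect of over 60% in size; about a fifth of the inactives were tested at one dose only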
#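 Cells in DMEM/10% FBS with G418 were pretreated with compounds in DMSO plus […] (300 uM stock) for 30 min at 37C. cAMP was measured by HTRF (cAMP-d2 plus anti-cAMP antibody-K) after 30 min at room temperature.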
# CtBP-E1A blk: blocks the CtBP interaction with E1A | activity change, % (no concentration beside the values) | AlphaScreen GST-E1A/His-CtBP binding, 1536-well; stronger effect = lower value; control for the full effect not named in the record | 340,000 compounds, 0.49% hits; in the data active means activity change below about -65%; inconclusive means about -30% to -65%; inactive means above about -30%; also: % is scaled to controls: 0 for no effect and ±100 for the full control effect
#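 In 5 uL wells, 23 nL compound meets equimolar GST-E1A and His-CtBP (5X stock 125 nM each) for 2 h, 37 °C. Beads (5X, 50 ug/mL) then 1 h, 37 °C, dark.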
# D2 agonist: human D2 receptor agonism in beta-arrestin assay; activation, % (test concentration not listed); 360,000 compounds, 0.084% hits; AID 624465; P14416; DiscoveRx PathHunter D2 beta-arrestin, luminescence, 90 min; 100% = 57 uM dopamine signal; in the data active = activation above about 40%; inconclusive = about 15% to 40%; inactive = below about 15%; also: compound concentration not given in the record; the text of the record calls up to 30% inactive
#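 DiscoveRx PathHunter D2 beta-arrestin cells (2,100/well) attached overnight, then compound-stimulated 90 min at 37 C in HBSS/10 mM HEPES/0.1% Tween-20 buffer; beta-galactosidase complementation read by luminescence after 1 h at ambient temperature. Dopamine 57 uM final (EC100) as control.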
# The depositor's hits bear a star; u = inconclusive; x = no result given; [ ] = dose if it differs, or a comment.
structure	gsp antagonist	D2 PAM	Six1-Eya2 inh	gsp agonist	CtBP-E1A blk	D2 agonist
Cc1ccc(S(=O)(=O)N2CCN(S(=O)(=O)c3ccccc3)C2)cc1	-13%	-7	7	-27%	16	-0.9
CCN(CC)C(=O)c1cccc(-c2csc(C(C)(O)c3ccc(F)c(F)c3)n2)c1 (configuration not stated)	x	-12	-5	x	-1	7.5
CCOC(=O)c1[nH]c2ccc(C)cc2c1NC(=O)CN1CCCCC1	-8%[15.4 µM]	-23	6	11%	-1	-5.2
CCCC(=O)Nc1cc(C(=O)O)ccc1Sc1ccccc1	-20%	-2	2	-13%[15.4 µM]	16	-0.6
COCCCN1C(=O)C(=O)/C(=C(/O)c2ccc3c(c2)CC(C)O3)C1c1cccnc1 (configuration not stated)	4%	-10	11	u	1	-0.2
CCc1nc(SCC(=O)Nc2ccnc3ccccc23)n[nH]1	0%	-1	3	-2%	0	-0.2
Cc1ccc(C(=O)N(C)CC(=O)Nc2ccc(Cl)c(C(F)(F)F)c2)cc1S(=O)(=O)N1CCCCC1	-28%	-7	-1	-3%	3	10
CCc1cc2c(SCC#N)ncnc2s1	6%	-8	6	2%[15.4 µM]	-1	-16
CC(C1CC1)N(Cc1ccccc1)C(=O)NC(=O)c1ccc(F)cc1 (configuration not stated)	0%	-4	3	-20%[15.4 µM]	-11	-0.6
CCOc1ccc(OCC)c(NC(=O)CSc2nnc(Cn3cnc4ccccc43)n2C)c1	-2%	-4	-1	-4%	9	-2.8
COc1ccc(-n2c(C)c(C(C)=O)c3cc(OCC(N)=O)ccc32)cc1	2%	3	1	-3%	3	-2.8
CC1CN(C(=O)c2ccc(NS(=O)(=O)c3cccc(Cl)c3)cc2)CC(C)O1 (configuration not stated)	-16%	1	5	1%	10	0.2
NC(=O)CSc1nnc(COc2ccc3ccccc3c2)o1	-4%	1	11	-33%	-13	1.3
CCOC(=O)c1cnn(-c2cc(C)nc3c(-c4ccccc4)cnn23)c1N	-1%	-15	12	-12%	4	-1.7
O=C(Nc1cc(S(=O)(=O)N2CCOCC2)ccc1O)c1ccc(NS(=O)(=O)c2ccc(Cl)s2)cc1	-19%	13	-2	22%	-10	8.7

# The list continues.
structure	gsp antagonist	D2 PAM	Six1-Eya2 inh	gsp agonist	CtBP-E1A blk	D2 agonist
CCOc1ccccc1CNCc1ccc(F)cc1	12%	-14	8	26%[15.4 µM]	4	0.5
CCn1cc2nc(SCC(=O)Nc3ccc(OC)c(OC)c3)n(Cc3ccc(OC)cc3)c(=O)c2n1	-6%	-1	-9	-10%	-2	6.3
COc1ccc(CC(=O)OCC(=O)Nc2ccc(Cl)c(S(=O)(=O)N(C)C)c2)cc1	3%	-11	-8	2%	6	-2.8
CC(=O)c1ccc(OCc2cc(C(=O)N3CCCCC3c3cccnc3)no2)cc1 (configuration not stated)	-12%	-7	-2	-17%[15.4 µM]	6	2.4
COc1ccc(C(=O)CCC(=O)N2CCN(c3ccc(C)cc3)C(C)C2)cc1 (configuration not stated)	u	-11	-16	8%	-19	-3.2
CC(=O)N(Cc1cccc(Br)c1)c1ccc(N2CCOCC2)c(Cl)c1	-4%	-17	-9	-39%[inhibitor]	x	-0.2
C=CCOc1ccc(C2C(C(=O)c3cccs3)=C(O)C(=O)N2c2nnc(C)s2)cc1 (configuration not stated)	26%	-24	13	32µM*	29	-7.2
CC(C)CCNC(=O)C1CCC(=O)N1CCc1ccccc1 (configuration not stated)	-1%	-8	11	6%	-14	-7.2
O=C(c1ccc(OC2CCN(CCCc3ccccc3)CC2)cc1)N1CCCC1	10%	-25	-5	-41%[inhibitor]	-8	2.0
COc1ccc(OC)c(NC(=O)CSc2nnc(CNc3ccc(C)cc3C)o2)c1	-14%	-2	-12	29%	-7	-3.6
COc1cccc2cc(C(=O)N3CCCCCCC3)c(=O)oc12	8%	-3	4	-4%	-11	-2.9
CN=C1S/C(=C\c2ccc(N3CCCC3)c(F)c2)C(=O)N1C	2%	2	14	-21%	19	1.2
COc1ccc(C(=O)Nc2ccc(NC(=O)c3ccccc3)cc2)cc1S(=O)(=O)N1CCOCC1	8%	-10	-14	-2%[15.4 µM]	-19	3.2
c1ccc(-c2[nH]ncc2CN2CCc3ccccc3C2)cc1	12%	-27	-16	8%[15.4 µM]	-1	-1.9
Cc1nc2cc(C(=O)OCC(=O)NC34CC5CC(CC(C5)C3)C4)ccc2n1-c1ccccc1	u	-12	-7	1%[15.4 µM]	2	3.6

# Continued.
structure	gsp antagonist	D2 PAM	Six1-Eya2 inh	gsp agonist	CtBP-E1A blk	D2 agonist
Cc1ccc(NC(=O)C2CCCCC2)cc1C	1%	-24	7	x	7	-1.0
COc1ccc(OCCCN2CCc3ccccc3C2)cc1	12%	-26	-13	-48%[inhibitor]	-23	-1.1
O=C(CCCOc1ccc(Cl)cc1Cl)NCC1CCCO1 (configuration not stated)	-3%	-14	9	-27%	2	-1.3
CCN(CC)C(=O)CSc1nc2sc3c(c2c(=O)n1CCCOC)CCC3	-6%	-2	-7	7%[15.4 µM]	-5	-0.9
Nc1cc(-c2nn[nH]n2)ccc1F	3%	6	-1	-10%	-17	2.3
O=C(Cn1c(=O)n(-c2cccc(C(F)(F)F)c2)c(=O)c2sccc21)NCC1CCCO1 (configuration not stated)	5%	-11	-20	6%[15.4 µM]	0	-6.3
CCN1CCCC1CNS(=O)(=O)c1ccc(Br)cc1 (configuration not stated)	11%	-9	4	u	5	-5.3
O=c1c(-c2ccc(Br)cc2)coc2c(CN3CCOCC3)c(O)ccc12	-15%	5	0	-8%	13	-2.4
CCCCNC(=O)NC1C(NC(=O)NCCCC)N(C)C(=O)N1C (configuration not stated)	-1%[15.4 µM]	4	5	-13%	9	-0.8
O=[N+]([O-])c1ccc(Sc2ccncn2)c([N+](=O)[O-])c1	x	-16	-11	-7%	0	u
CC1CN(S(=O)(=O)c2ccc(C(=O)Nc3nnc(-c4ccco4)o3)cc2)CC(C)O1 (configuration not stated)	-12%	1	-10	u	1	1.4
CCOC(=O)C(C(=O)NCC1CCCO1)C1CCCCC1 (configuration not stated)	6%	-2	-6	-72%[inhibitor]	0	-0.3
COc1ccc(C(=O)Cn2c(C)nc([N+](=O)[O-])c2Br)cc1	-9%	2	1	-20%[15.4 µM]	-4	-2.8
Cc1cccc2nc(CNC(=O)CC3C(=O)NCCN3Cc3cccc(F)c3)cn12 (configuration not stated)	-5%	-7	2	16%	x	3.9
COc1ccc2nc(NC(=O)CN3CCOCC3)sc2c1	3%	-12	-23	-40%	1	-4.9

# Next section:
structure	gsp antagonist	D2 PAM	Six1-Eya2 inh	gsp agonist	CtBP-E1A blk	D2 agonist
CC1(C)CC(=O)C(CC2C(=O)CC(C)(C)CC2=O)C(=O)C1	5%	-2	8	8%[15.4 µM]	3	-4.5
Cc1ccc(O)c(C(=O)c2cnc3c(c2)COc2ccc(C)cc2-3)c1	-18%[15.4 µM]	-15	u	4%	-11	-11
CCc1nnc(NC(=O)c2ccc(S(=O)(=O)N3CCCCCC3)cc2)s1	2%	3	-1	-1%	-3	-3.7
COc1ccc(C(O)c2nc(-c3ccc4ccccc4c3)cs2)cc1 (configuration not stated)	x	0	-1	x	-2	6.3
CCOC(=O)c1c(C)c(/C=N/Nc2ccccc2)n(C)c1C	1%	5	-10	39%[15.4 µM]	-10	-2.3
Oc1c(C(c2ccccc2)N2CCCCC2)sc2ncnn12 (configuration not stated)	-2%	-1	3	u	-1	0.9
CCC1CCCCN1Cc1ccc(CNC(=O)CCc2nnc3ccc(N4CCCCC4)nn23)o1 (configuration not stated)	8%	-22	2	1%	2	-5.9
C[C@H](CO)N1C[C@H](C)[C@H](CN(C)S(C)(=O)=O)Oc2c(cccc2N(C)C)C1=O	2%	-5	5	x	0	-3.6
CC(C)OC(=O)CSc1nnc(-c2ccc(Cl)cc2)n1N	-1%	-2	1	-36%	8	-3.5
CCCCCN(C(=O)CCC(=O)OCC(=O)NC1CCC(C)CC1)c1c(N)n(CCCC)c(=O)[nH]c1=O (configuration not stated)	7%	5	6	6%[15.4 µM]	-20	-3.5
Cc1ccc2nc(NC(=O)C3CCN(S(=O)(=O)c4ccc5c(c4)oc(=O)n5C)CC3)sc2c1	-8%	-4	9	-1%	1	-1.3
Cn1nc(C(=O)Nc2ccc(Br)cc2)cc1C(=O)Nc1ccc(Br)cc1	18%	-12	6	7%	-9	-5.2
CCO[C@H]1OC(C(=O)N2CCOCC2)=C[C@@H](C2CC2)[C@@H]1CCCO	1%	-10	-11	-6%	-25	2.0
CCCCc1nnc(NC(=O)C(C)Sc2nc(O)c(Cc3ccccc3)c(=O)[nH]2)s1 (configuration not stated)	1%	0	-3	-2%[15.4 µM]	2	-1.5
CC(C)(C)c1cc(-n2ccnc2)n2ncc(-c3ccc(Cl)cc3)c2n1	10%	21	2	0%	10	-0.4

# Rewritten with each value named: part of the list above
> CCO[C@H]1OC(C(=O)N2CCOCC2)=C[C@@H](C2CC2)[C@@H]1CCCO
  gsp antagonist: 1%; D2 PAM: -10; Six1-Eya2 inh: -11; gsp agonist: -6%; CtBP-E1A blk: -25; D2 agonist: 2.0

> CCCCc1nnc(NC(=O)C(C)Sc2nc(O)c(Cc3ccccc3)c(=O)[nH]2)s1 (configuration not stated)
  gsp antagonist: 1%; D2 PAM: 0; Six1-Eya2 inh: -3; gsp agonist: -2%[15.4 µM]; CtBP-E1A blk: 2; D2 agonist: -1.5

# Additional compounds follow.
structure	gsp antagonist	D2 PAM	Six1-Eya2 inh	gsp agonist	CtBP-E1A blk	D2 agonist
Cc1c(Cc2ccccc2)c(=O)oc2cc(OCC(=O)N3CCC(C(=O)O)CC3)ccc12	5%	-45	-12	x	-15	-9.0
O=C(NC(NC(=O)c1c(F)cccc1F)c1ccc([N+](=O)[O-])cc1)c1c(F)cccc1F	u	-10	-1	12%	-2	-5.4
CC1CCCC(C)N1/N=C/c1ccc(O)cc1 (configuration not stated)	10%	-9	0	14%	-1	-7.5
c1ccc(-c2nc(-c3nccc4ccccc34)oc2-c2ccccc2)cc1	-9%	-13	44	u	13	-4.1
Cc1ccc(CNS(=O)(=O)CCNC(=O)c2ccc3c(c2)OCO3)cc1	1%	-21	4	4%[15.4 µM]	-28	-5.6
Brc1ccc(-c2noc(CCc3ccccc3)n2)o1	-13%	-2	28	-25%	63	-4.9
Fc1ccccc1N1CCN(c2cnc3ccccc3n2)CC1	-6%	22	43	-12%	31	-0.6
O=[N+]([O-])c1ccc2c(c1)nc(CO)n2Cc1ccccc1	-6%	1	0	18%	7	-2.4
C/C(=N\NC(=O)c1ccc(NS(=O)(=O)c2cccs2)cc1)c1ccc(C(C)(C)C)cc1	u	-6	-1	-2%[15.4 µM]	-13	0.0
COc1ccccc1/C=C/c1nc(S(=O)(=O)c2ccccc2)c(NCCN(C)C)o1	8%	-25	8	-22%	-15	-1.1
O=C(OCc1ccccc1)N1CCC2CC1c1c2cccc1N1CCOCC1 (configuration not stated)	x	-7	1	x	-2	-3.5

# Rows were taken by chance; any-hit rate near 1.4%.
